# Screens: PubChem, National Center for Advancing Translational Sciences (NCATS)
# NPR1 antag = blocks ANP-stimulated signaling of human Npr1 receptor; 76,000 tested, 1.6% active; P16066; HEK293 hNpr1 GloSensor cGMP, ANP-stimulated luminescence; Potency, µM (series often up to 46.3 µM), without a hit: at the top dose activity change, negative = inhibition, most hits filed as inhibitors; active = well fitted inhibition curve with a large enough effect; inconclusive = small, poorly fitted or top-dose-only effect; inactive = no such curve, though single readings can be large or run the other way;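 further: nearly all actives have a fitted effect of over 60% in size; nearly all hits also lower the signal before the agonist is added; a reference antagonist and vehicle were the controls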
# Target sequence (P16066 whole entry, looked up): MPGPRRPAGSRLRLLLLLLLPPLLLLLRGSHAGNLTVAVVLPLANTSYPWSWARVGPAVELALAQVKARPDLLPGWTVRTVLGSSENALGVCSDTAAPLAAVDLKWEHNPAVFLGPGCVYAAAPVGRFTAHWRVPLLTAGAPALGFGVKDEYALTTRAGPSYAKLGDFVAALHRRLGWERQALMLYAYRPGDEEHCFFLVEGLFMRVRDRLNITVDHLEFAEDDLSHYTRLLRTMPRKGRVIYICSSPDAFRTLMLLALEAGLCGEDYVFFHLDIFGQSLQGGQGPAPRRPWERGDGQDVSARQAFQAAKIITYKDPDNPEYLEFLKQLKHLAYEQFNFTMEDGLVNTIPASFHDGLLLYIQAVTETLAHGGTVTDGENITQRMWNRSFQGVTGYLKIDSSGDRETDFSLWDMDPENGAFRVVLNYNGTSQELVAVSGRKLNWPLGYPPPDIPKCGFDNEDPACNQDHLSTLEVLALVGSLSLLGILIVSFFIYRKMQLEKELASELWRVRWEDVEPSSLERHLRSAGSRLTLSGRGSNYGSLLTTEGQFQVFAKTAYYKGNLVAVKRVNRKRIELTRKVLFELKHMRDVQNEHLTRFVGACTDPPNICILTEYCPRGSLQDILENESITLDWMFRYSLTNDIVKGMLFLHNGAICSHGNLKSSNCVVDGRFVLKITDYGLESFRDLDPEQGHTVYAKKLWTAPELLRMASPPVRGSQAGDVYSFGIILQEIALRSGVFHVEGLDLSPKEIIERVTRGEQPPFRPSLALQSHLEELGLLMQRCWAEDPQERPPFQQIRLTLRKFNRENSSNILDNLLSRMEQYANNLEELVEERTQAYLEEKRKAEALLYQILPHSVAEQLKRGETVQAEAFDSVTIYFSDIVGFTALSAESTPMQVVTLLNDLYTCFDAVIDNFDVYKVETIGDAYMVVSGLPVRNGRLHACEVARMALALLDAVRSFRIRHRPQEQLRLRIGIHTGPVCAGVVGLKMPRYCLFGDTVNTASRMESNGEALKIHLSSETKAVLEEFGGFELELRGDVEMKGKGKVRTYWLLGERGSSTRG
#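 HEK293 cells stably expressing human Npr1 and cGMP GloSensor pGS-40F, loaded 2 h with 2% GloSensor reagent, given compound 30 min at room temperature. Luminescence read before and 20 min after 0.1 nM hNppA.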
# Starred values were filed as active, the others as inactive; ? = inconclusive; [ ] = another dose, or the depositor's remark. On the % scale 0 is the no-effect control and ±100 the full control effect; potency means the concentration at half of the fitted maximal effect. A portion of the library; count on the stated rates, not on these rows.
SMILES,NPR1 antag
CC(C)c1ccc(N2CC(C(=O)N(C)C3CCSCC3)CC2=O)cc1 (stereo not drawn),7.4%
COc1cccc(OCCN(C)C(=O)C2CCCN(C(=O)N(C)C)C2)c1 (stereo not drawn),-8.0%
CC(C)C(=O)NCC(=O)N1CCCCCCNC(=O)CC1c1ccccc1 (stereo not drawn),0.9%
CCOC(=O)N1CCN(C(C(=O)O)c2ccc(OC)nc2OC)CC1 (stereo not drawn),1.0%
CN(C)C(=O)c1cccnc1N1CC2CC(C1)[C@H]1CCCC(=O)N1C2 (stereo partly drawn),-7.0%
CCOc1ccc2c(n1)CCN(C(=O)c1ccc(C(C)C)cc1)C2,-2.9%
O=C(C[C@@H]1O[C@H](CNC(=O)Nc2cccc(F)c2)[C@@H](O)[C@H]1O)NCc1cccnc1,2.2%[70.6 µM]
COCCn1ncc(N2CCCC(CC(=O)NCCc3ccccn3)C2)cc1=O (stereo not drawn),2.1%
COc1cc(C)c(CN2CCC3(CC2)[C@H](O)C[C@@H]3OCCN)cc1C,-0.3%
CC(C(=O)NCc1ccccc1F)C1CCOCC1 (stereo not drawn),0.0%
Cc1noc(C)c1-c1cc2cc(CO)oc2c(NCc2cccc(F)c2)n1,-16.2%[70.6 µM]
Cc1ccc(SC2CCN(Cc3nc(CCc4ccccc4)no3)CC2)cc1,2.7%
CC(C)c1cc(C(=O)N2CCC3(CC2)Nc2ccccc2NC3=O)n[nH]1,-4.0%
C#CCNC(=O)[C@@H]1Cc2c[nH]c3cccc(c23)[C@H](CC(C)C)N1,-2.8%[70.6 µM]
CCCNC(=O)N1CC[C@@H](CC(=O)O)[C@@H](CC2=NCCc3cc(OC)ccc32)C1,10.6%[70.6 µM]
CN(Cc1cccnc1)C1CN(C(=O)C2CCCCC2)C1,4.3%
Cc1ccc(CN2CCNC(=O)C2CC(=O)O)cc1 (stereo not drawn),-5.2%
CCc1ccc(NC(=O)C2CCN(C(=O)c3nnn4cc(C)[nH]c(=O)c34)CC2)cc1,13.3%
CNC(=O)[C@@H]1CN(C(=O)c2cccc(OC)c2C)C[C@H]1COC,-1.4%
CCc1ccc2occ(CC(=O)N[C@H]3[C@@H](COC)[C@H]4OCC[C@@H]34)c2c1,4.2%
CCc1nc(-c2c3n(c(=O)n(CC(=O)Nc4cc(C)ccc4C)c2=O)CCCC3)no1,-3.7%
O=C(NCCc1ccccc1)C1Cn2cccc2C(=O)N1Cc1cccnc1 (stereo not drawn),-2.2%
O=C(Nc1cnc(-c2ccccc2)nc1)C1CCCCC1,?
Cc1nc(C2CCCCN2C(=O)NC2CCCCC2)n[nH]1 (stereo not drawn),5.6%
COc1ccccc1CCC(=O)N1CC(C(=O)N(C)C)C2(CCOCC2)C1 (stereo not drawn),-0.4%
# (listing goes on)
SMILES,NPR1 antag
O=C1CC(c2ccccc2)N(C(=O)C2CC2)CCCN(S(=O)(=O)c2ccccc2)CCN1 (stereo not drawn),1.9%
CCNC(=O)NC1(CCOC)CCN(C(=O)Cc2cccc(OC)c2)CC1,-2.1%
CCS(=O)(=O)Nc1ccc(C2(C(=O)NCc3ccc(C)cc3)CCC2)cc1,1.2%
Cc1cccc2ncc(C(=O)N3CCC4(CCNC(=O)CC4)CC3)c(=O)n12,-3.9%
O=C(Cc1ccc(Cl)cc1)N1CCc2n[nH]c(=O)n2CC1,3.8%
COCCC(=O)NC[C@@H]1C=C(C)[C@H](CC(=O)N(C)Cc2ccccc2)C[C@H]1C(C)C,1.7%[70.6 µM]
Cc1nn(C)c(C)c1CCC(=O)NC1CCc2n[nH]c(=O)n2CC1 (stereo not drawn),6.0%
COc1ncccc1-c1cnc2[nH]cc(CC(=O)Nc3ccn(C)n3)c2c1,-11.0%[70.6 µM]
O=[S+]([O-])(Nc1cccnc1)c1ccc2c(c1)OCCN(CCc1ccccc1)C2,?
CCOc1ccc(CC(=O)Nc2ccc(-c3nnc4n3CCCC4)cc2)cc1,-0.7%
COC(=O)[C@@H]1Cc2ncn(Cc3ccccc3)c2CN1C(=O)C1CCCCC1,-11.7%[70.6 µM]
CCCN(CC1CCOC1)C(=O)Nc1ccccc1Br (stereo not drawn),-2.0%
COC(=O)[C@H](Cc1ccc(OC)cc1)NC(=O)[C@H]1CN(C(=O)Nc2ccccc2)CCN1S(C)(=O)=O,2.3%
O=C(NC1C[C@H]2CC[C@@H](C1)N2C(=O)c1ccn[nH]1)c1ccncc1 (stereo partly drawn),1.0%
Cc1ccccc1CC(=O)N1CCC[C@H]1c1nc(-c2ccccc2)no1,3.2%
COc1ccc(-c2cc(NCCO)nc3[nH]ccc23)cc1C(F)(F)F,-15.8%
CC(C)Oc1cccc(-c2nc(C(=O)NCc3ccc(F)cc3)cs2)c1,-28.6%
Cc1ccc(CN2C[C@@H]3C[C@H]2C(=O)N(CC2CC2)c2ccccc2O3)cc1,-18.4%[70.6 µM]
CN1CCCCCC1C(=O)N1CCC(N2CCC(C(=O)NCc3ccccn3)CC2)CC1 (stereo not drawn),-2.9%
NC(=O)CN1CCC(C(=O)N2C[C@@H](C(=O)O)[C@H](c3ccccc3)C2)CC1,2.8%
CC1(C)CN(C(=O)C2(c3ccccc3F)CC2)C[C@]1(C)O,0.0%
CCCOCCCNC(=O)c1c(C)noc1-c1cccc(F)c1,-8.5%
O=C(NCc1ccccc1C(F)(F)F)c1cccc2c1CCN2C(=O)C1CC1,-0.3%
O=C(c1ccsc1)N1CCN(c2cc(-c3cccs3)[nH]n2)CC1,-17.4%
O=C(N[C@H]1C[C@@H](CO)N(CCc2ccccc2)C1)c1cccnc1,-9.2%
# (listing goes on)
SMILES,NPR1 antag
CC(C)(C)NC(=O)N1CC[C@H]2C(=O)NCCCCCN(Cc3cccnc3)[C@@H]2C1,0.3%
COc1ccc2cc(CN3CCC(N(C)C)C3)c(-c3cccc(C)c3)nc2c1 (stereo not drawn),-0.1%
O=C(c1cccc(O)c1)N1CC(CNc2ccccc2)C2(C1)CN(c1ccccc1)C2 (stereo not drawn),-7.9%[70.6 µM]
Cc1ccccc1CC(=O)N1CC[C@@H]2CN(S(C)(=O)=O)[C@@H]2C1,5.9%
COc1ccc(C(=O)N(CC2CC2)CC2CN(C(=O)Nc3ccccc3)CCO2)cc1OC (stereo not drawn),0.7%
COc1ccc(CNC(=O)c2cc3n(n2)CC(c2ccc(Cl)cc2)OC3)cc1 (stereo not drawn),22.4µM*
COc1cc(C(=O)N2CCN(c3cc(-c4ccc(Cl)cc4)[nH]n3)CC2)cc(OC)c1OC,?
CCCc1noc(-c2cccn3c(CNC(=O)c4ccc(C)cc4C)nnc23)n1,3.4%
COc1ccc(-c2noc([C@H](C)O)c2C(=O)NC(C)C)cc1,-1.9%[70.6 µM]
Cc1noc(C2CC3(CCN(C(=O)CCc4c[nH]c5ccccc45)CC3)CN2C)n1 (stereo not drawn),3.7%
Nc1nnnn1CC(=O)N[C@@H]1COCC[C@@H]1Oc1ccc(F)cc1,13.1%
Fc1ccc(-c2cnc3n2C[C@H](CNC2CCCC2)OC3)cc1,-5.4%[70.6 µM]
O=C(NCCn1ccn2nc(-c3ccc(F)cc3)cc2c1=O)c1ccc(F)cc1,-0.9%
CCc1nc2c(=O)n(CC(=O)NCc3ccc(Cl)cc3)nc(C)c2s1,4.0%
Cc1ccc2c(c1)nc1n2[C@@H](CNC(=O)c2ccccn2)COC1,1.1%[70.6 µM]
O=C(Cn1nc2c(cc1=O)CCCC2)NC1CCN(C(=O)c2cc3ccccc3[nH]2)CC1,-1.7%
O=C(O)c1cccnc1CN1CCCC(c2nc(-c3ccccc3)no2)C1 (stereo not drawn),0.8%
O=C(NCC1CCN(c2cc(-c3ccc(F)cc3)[nH]n2)CC1)c1ccc[nH]c1=O,4.0%
CC(C)CCNc1ccc2nncn2n1,6.1%
COc1ccc(CN2CCOc3nc(-c4ccc(F)cc4F)ncc3C2=O)cc1,-14.9%[70.6 µM]
CCc1ncn2ccn(Cc3ccccc3F)c(=O)c12,4.9%
O=C(C1CC1)N1CCn2c(nn(-c3ccc(F)cc3)c2=O)C1,3.2%[70.6 µM]
Cn1ccn2ncc(C(=O)N3CCC(N4CCCC(C(=O)N5CCCC5)C4)CC3)c12 (stereo not drawn),2.0%
CCc1noc(-c2ccn3c(CNC(=O)c4cc(Cl)ccc4OC)nnc3c2)n1,2.6%
c1ccc2c(c1)CCCN2CCCNc1ncncn1,-1.7%

# Shown bar-delimited: three of the compounds above
Compound | NPR1 antag
O=[S+]([O-])(Nc1cccnc1)c1ccc2c(c1)OCCN(CCc1ccccc1)C2 | ?
CCOc1ccc(CC(=O)Nc2ccc(-c3nnc4n3CCCC4)cc2)cc1 | -0.7%
COC(=O)[C@@H]1Cc2ncn(Cc3ccccc3)c2CN1C(=O)C1CCCCC1 | -11.7%[70.6 µM]

# Further results:
SMILES,NPR1 antag
CC(=O)Nc1cccc(-c2cn(C)c(=O)n3cc(CN4CCNC(=O)C4)nc23)c1,2.7%[70.6 µM]
CCOc1ccccc1NC(=O)CC1CCCN(c2cn[nH]c(=O)c2)C1 (stereo not drawn),6.4%
O=c1c2c(CO)c(-c3ccccc3)nn2ccn1Cc1ccc(Br)cc1,-21.4%
N#Cc1cccc(NC(=O)N[C@H]2CO[C@H]3[C@@H]2OC[C@@H]3Nc2nccc(-c3cccc(F)c3)n2)c1,-18.3%
Cc1nc(N2CCC(NC(=O)COc3ccccc3)CC2)cc(C(F)(F)F)n1,-27.1%
O=C(c1ccccc1)N1CCCn2cc(-c3ccc4c(c3)OCO4)nc21,-0.1%
O=C(Cc1ccc(F)cc1)N1CCC(N2CC3CCCN3C2=O)CC1 (stereo not drawn),-0.3%
CN(C)c1cccc(-c2cc3c(cn2)CN(Cc2ccncc2)CCN3)c1,-15.6%[70.6 µM]
O=C(CCc1nc2ccccc2[nH]1)N1C[C@@H](CO)[C@H](c2ccccn2)C1,-2.3%
COc1cccc(CC(=O)N2CCCCCCNC(=O)CC2)c1,-1.0%
COc1ccc(C)cc1NC(=O)Cn1c(N2CCc3ccccc3C2)nc(C)cc1=O,0.8%
COCCNC(=O)C[C@@H]1C[C@H]2O[C@H](CNC3CCCCC3)[C@@H](O)[C@H]2O1,2.9%[70.6 µM]
COc1ccc2c(=O)n(CC(=O)N(C)CCc3cnn(C)c3)ccc2c1OC,0.5%
CCc1ccc(C(=O)Nc2ccc3c(N4CCOCC4)ncnc3c2)cc1,2.2%
COc1ccc(N2CCN(C(=O)CN3C(=O)NC4(CCCCC4)C3=O)CC2)cc1,17.9%
O=C(NCc1ccco1)NC1CC(=O)N(CCCc2ccccc2)C1 (stereo not drawn),0.7%
C[C@@]12CO[C@@H](CNC(=O)C3CCCC3)O[C@@H]1CC[C@]1(C)[C@@H]2CC[C@@H](O)[C@H]1CC(=O)NCc1ccc(F)cc1,-2.7%
CC(C)CCN1CCc2c(n(CCOc3ccccc3)n(-c3ccccc3)c2=O)C1,-28.8%[70.6 µM]
Cc1cnc(C(=O)NC2C[C@H]3CC[C@@H](C2)N3C(=O)C2(c3ccccc3)CC2)cn1 (stereo partly drawn),2.0%
COC[C@@H]1CN(Cc2ccc(C)cn2)C[C@H]1C(=O)N(C)C,-3.4%
Cc1ccc(C2Cn3nnc(C(=O)N4CCC(C(=O)Nc5cccc(Cl)c5)CC4)c3CO2)cc1 (stereo not drawn),-14.8%
Cc1ccc(CS(=O)(=O)N[C@@H]2CN(c3ncccn3)C[C@H]2CN(C)C)cc1,0.1%
O=C(CCC[C@@H]1[C@H]2CCCN3CCC[C@@H](CN1C(=O)c1ccccc1)[C@@H]23)NCCCN1CCCC1=O,3.8%
O[C@@H]1C[C@@H](c2nnc3n2CCN(Cc2ccc(F)cc2F)C3)N(Cc2ccccc2)C1,5.6%
COCCN1CCCCC(CC(=O)Nc2cc(OC)cc(OC)c2)C1=O (stereo not drawn),3.8%

# The last 5 entries of the part above lead into the next.
SMILES,NPR1 antag
Cc1ccc(C2Cn3nnc(C(=O)N4CCC(C(=O)Nc5cccc(Cl)c5)CC4)c3CO2)cc1 (stereo not drawn),-14.8%
Cc1ccc(CS(=O)(=O)N[C@@H]2CN(c3ncccn3)C[C@H]2CN(C)C)cc1,0.1%
O=C(CCC[C@@H]1[C@H]2CCCN3CCC[C@@H](CN1C(=O)c1ccccc1)[C@@H]23)NCCCN1CCCC1=O,3.8%
O[C@@H]1C[C@@H](c2nnc3n2CCN(Cc2ccc(F)cc2F)C3)N(Cc2ccccc2)C1,5.6%
COCCN1CCCCC(CC(=O)Nc2cc(OC)cc(OC)c2)C1=O (stereo not drawn),3.8%
COc1ccc(-c2cc(N3CCC(NC(=O)c4ccc5c(c4)OCO5)CC3)n[nH]2)cc1,-5.1%
CC(C)N1CC(Oc2cccc(C(=O)N3CCOCC3)c2)C1,9.0%
CCCNC(=O)N1CCC2(CCCCO2)CC1,2.9%
O=C(c1nc(-c2ccc(F)cc2)c2ccccn12)N1CCN(c2ncccn2)CC1,-3.1%
COc1ccc(CC(=O)N2CCn3c(nnc3-c3ccc(OC)cc3)C2)cc1,-2.2%
CCOc1ccc2c(n1)CCN(C(=O)Cc1c(C)noc1C)C2,-10.6%
O=c1c2nc(-c3ccccc3)ccc2ncn1-c1ccccc1,-2.2%[70.6 µM]
CN1c2cc(C(=O)Nc3cccc(F)c3)ccc2C(=O)N2CCCCCC21 (stereo not drawn),-28.4%
Cc1ccc(-n2cc(CN(C)C(C)C(=O)N(C)C)c(-c3cccc(C)c3)n2)cc1 (stereo not drawn),6.8%
O=C(c1cc[nH]c1)N1CCN(c2nc3ccccc3s2)CC(O)C1 (stereo not drawn),-16.1%
CCCNC(=O)c1cccc2c1CCN2S(=O)(=O)c1ccc(OC)cc1,?
CC(=O)Nc1ccc(CN[C@@H]2CO[C@H](CNC(=O)C3CCCC3)[C@H]2O)cc1,5.2%[70.6 µM]
CN(C)c1cccc(-c2nc(-c3nnn4c3COC(c3ccc(Cl)cc3)C4)no2)c1 (stereo not drawn),1.6%
